# Beta apoptosis: blocks beta cell apoptosis. INS-1E cytokine-induced death, ATP luminescence, 48 h; percent of positive-control rescue, neutral wells zero. hit rate 0.8% among 300,000. protection from apoptosis, % (test concentration not listed);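 active = all replicates at 75% or more, or half of them and the mean; inconclusive = half reach 75% but not the mean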;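 note: 0% = cytokine-treated negative control wells and 100% = positive control rescue; higher means more ATP so stronger rescue from cytokine killing; wells of about 40 µL received 100 nL stock; the first replicate is given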
# Calb FLC: affects C. albicans growth with fluconazole. C. albicans CaCi-2 (fluconazole-resistant clinical isolate) + fluconazole, Alamar Blue growth, 48 h. growth inhibition, % (test concentration not listed). hit rate 0.57% among 300,000. AID 1979;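 active = most replicates above 75%; inconclusive = exactly half above 75%; inactive = most below 75%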;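 note: all wells also contain fluconazole at 8 µg/ml as a sub-toxic cotreatment; 0% = median of DMSO wells and 100% = median of geldanamycin control wells; wells of about 8 µL received 7.5 nL stock; the first replicate is given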
# AF4-AF9 inh: inhibitors of human MLL-AF4/AF9 interaction | hit rate 0.47% among 350,000 | P42568 | inhibition, % at 10 µM | AlphaScreen, biotin-AF4 peptide binding to FLAG-AF9;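 active = every replicate reaching a set inhibition limit, whatever the replicate mean, cut at about 25% in these data; inconclusive = mean inhibition reaches that limit but some replicates miss it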;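 note: 0% = plate neutral control median and 100% = total signal loss; the record names both 10 and 1 µM as test concentration; the first replicate is given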
# Target sequence (P42568 whole entry, looked up): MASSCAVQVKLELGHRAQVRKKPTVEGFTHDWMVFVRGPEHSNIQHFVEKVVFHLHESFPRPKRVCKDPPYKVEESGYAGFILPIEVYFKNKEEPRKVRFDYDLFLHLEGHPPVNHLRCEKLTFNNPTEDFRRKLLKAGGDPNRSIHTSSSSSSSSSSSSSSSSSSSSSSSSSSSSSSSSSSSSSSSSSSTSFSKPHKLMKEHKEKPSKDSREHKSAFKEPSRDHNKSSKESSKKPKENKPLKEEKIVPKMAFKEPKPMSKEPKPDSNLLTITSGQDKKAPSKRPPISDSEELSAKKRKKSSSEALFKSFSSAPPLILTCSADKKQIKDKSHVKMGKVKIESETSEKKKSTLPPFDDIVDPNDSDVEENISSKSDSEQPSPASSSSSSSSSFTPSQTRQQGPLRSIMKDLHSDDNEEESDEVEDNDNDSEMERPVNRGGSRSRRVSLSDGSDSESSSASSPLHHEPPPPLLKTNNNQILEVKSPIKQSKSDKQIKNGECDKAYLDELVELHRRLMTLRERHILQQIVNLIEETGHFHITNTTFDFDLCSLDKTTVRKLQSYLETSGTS
# rRNA inh HTS: inhibitors of bacterial rRNA selective over humanized ribosomes. E. coli WT GFP vs humanized-ribosome RFP mutants, fluorescence, 24 h; hits give low values; DMSO median 0, no signal -100. GFP signal change (wild-type ribosome), % (concentration not given with the values). hit rate 1.6% among 350,000;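 active = significant combined selectivity score with lowered wild-type GFP, culture density cut under 30%, mutant RFP and density less affected; inactive = any of these conditions unmet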; note: one replicate is shown; some compounds called inactive have numbers as strong as hits
# ALR inh: inhibitors of human sulfhydryl oxidase ALR | purified ALR, DTT oxidation, H2O2 HRP-luminol luminescence | inhibition, % (concentration not given with the values) | hit rate 3.8% among 290,000 | P55789;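 active = mean and each replicate at 75% or more; inconclusive = only one of the two met; inactive = neither met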;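 note: stock transfer was 7.5 nL into about 7.5 µL; 0% = neutral wells and 100% = wells with inactivated enzyme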
# Target sequence (P55789 whole entry, looked up): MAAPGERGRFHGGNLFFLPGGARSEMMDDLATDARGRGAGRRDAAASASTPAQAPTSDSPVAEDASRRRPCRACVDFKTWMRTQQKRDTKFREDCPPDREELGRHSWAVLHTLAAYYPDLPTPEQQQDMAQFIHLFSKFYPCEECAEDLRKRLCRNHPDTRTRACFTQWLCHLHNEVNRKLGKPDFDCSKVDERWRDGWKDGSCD
# T cruzi repl: blocks replication of Trypanosoma cruzi | hit rate 1.4% among 300,000 | AID 1885 | T. cruzi beta-gal in NIH3T3, luminescence, 90 h | inhibition, % (concentration not given with the values);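 active = mean inhibition across valid replicates above about 55%, limit read from the data; inconclusive = mean below that limit but half or more replicates reach it; inactive = mean below it, under half of replicates reach it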;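 note: signal also drops with host cell toxicity which is not excluded here; 0% = plate median of DMSO wells and 100% = zero luminescence signal; higher percent means less beta-gal luminescence so fewer parasites; stock transfer was 50 nL into about 50 µL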
# FGF22 binding: shifts melting point of recombinant human FGF22. Q9HCT0. recombinant FGF22 thermal shift, SYPRO orange fluorescence; percent of sucrose octasulfate shift, DMSO zero. calls only at 9.99 µM. hit rate 1.5% among 340,000;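 active = melting point raised past a set limit in the mean and every replicate; inconclusive = no clear call; three in four hits are not shown here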
# Target sequence (Q9HCT0 whole entry, looked up): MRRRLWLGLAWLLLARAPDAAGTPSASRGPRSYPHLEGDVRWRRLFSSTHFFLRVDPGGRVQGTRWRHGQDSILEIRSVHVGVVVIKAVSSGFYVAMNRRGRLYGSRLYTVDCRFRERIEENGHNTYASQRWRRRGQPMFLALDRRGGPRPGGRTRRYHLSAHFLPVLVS
# RanGTP-Impb inh: disruptors of Ran-importin-beta complex formation – biochemical, FRET, CFP-Ran, YFP-importin-beta, homogeneous, primary screen. inhibition, % (test concentration not listed). cell-free CFP-Ran/YFP-importin-beta FRET ratio. hit rate 1.1% among 300,000;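 active = most replicates above 15%; inconclusive = exactly half above 15%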;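 note: 0% = DMSO wells and 100% = Ran loaded with GDP instead of GTP; wells of about 40 µL received 100 nL stock; the first replicate is given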
# rRNA inh HTS OD600: further read-out of rRNA inh HTS, marked with its call; OD600 change, %; measured here: OD600 growth;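 optical density of the mix in the first replicate; 0 = DMSO median and -100 = no signal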
# rRNA inh HTS RFP: second read-out of rRNA inh HTS, no call of its own (marks repeat the call); RFP signal change, %; measured here: RFP humanized mutant strains;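 first replicate; 0 = DMSO median and -100 = no signal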
# * = called active by the depositor; i = inactive; ? = inconclusive; . = no result given. This is a subset (hit frequency here may not be typical).
SMILES,Beta apoptosis,Calb FLC,AF4-AF9 inh,rRNA inh HTS,rRNA inh HTS OD600,rRNA inh HTS RFP,ALR inh,T cruzi repl,FGF22 binding,RanGTP-Impb inh
Cc1[nH]c(=O)[nH]c(=O)c1S(=O)(=O)N1CCCC(C(=O)NCCc2ccccc2)C1 (centres undefined),-5,-6,.,.,.,.,-1,-9,.,-4.4
C(=N\Nc1nc(-c2ccccc2)cs1)/c1ccncc1,.,-7,9.2,-5,-2,0.2,14,19,i,-2.7
Cc1ccc(NC(=O)COC(=O)CCC(=O)c2cccs2)cc1S(=O)(=O)N1CCOCC1,-7,-17,.,.,.,.,-24,-3,.,-3.3
C[C@@H](C(=O)Nc1ccc2ccccc2c1)[C@H]1C[C@]1(C)[C@H](NS(=O)(=O)c1ccccc1)c1ccccc1,-2,.,-1.4,10,11,-1.3,1,.,i,.
CCOc1ccc(C(=O)NCC(=O)OCc2nnc(-c3ccccc3)o2)cc1OCC,2,.,-1.1,0,-22,5.4,-1,.,i,.
O=C(CC(C(=O)O)P(=O)(c1ccccc1)c1ccccc1)c1ccc(Br)cc1 (centres undefined),-2,2,2.8,-2,-1,-0.1,-13,-11,i,2.3
CCOC(=O)c1c(C)n(C)c2ccc(OC)c(NC(=O)CN3CCN(C4CCCCC4)CC3)c12,-4,8,.,.,.,.,8,24,.,6.0
Cc1ccc(NC(=O)CCNC(=O)c2ccccc2Cl)cc1S(=O)(=O)N1CCCCCC1,-4,.,-0.8,0,2,0.1,.,.,i,.
COc1ccc(-c2[nH]c(-c3cccc(OC)c3)nc2SCC(=O)NCc2ccco2)cc1,.,.,-4.2,-10,-25,-2.4,55,.,i,.
CC(C)(C)NC(=O)CN(C(=O)CCC(=O)Nc1nccs1)c1cccc(C(F)(F)F)c1,.,3,-8.2,12,6,1.5,-4,-12,i,0.4
Cc1ccc(C(=O)N/C(=C/c2ccco2)C(=O)NCC2CCCO2)cc1 (centres undefined),2,1,.,.,.,.,.,-8,.,-0.2
O=C(Nc1ccc(F)c(Cl)c1)C1CCCN(c2cnccn2)C1 (centres undefined),-5,4,2.3,-1,-18,-5.6,-4,61*,i,-1.0
COc1cc(C2CC(=O)c3c(ccc4ccccc34)N2)ccc1O (centres undefined),-3,36,.,.,.,.,-12,7,.,-4.7
CC(CNC(=O)Cn1ccc2cc(S(=O)(=O)N3CCCC3)ccc21)c1ccccc1 (centres undefined),2,-12,-0.6,3,10,-6.1,-1,3,i,0.2
COc1ccc(/C=C2/C(=N)N3N=C(CC(=O)N4CCCC4)SC3=NC2=O)cc1OC,1,-7,-0.9,3,5,-1.2,11,-13,i,3.3
Cc1ccc(S(=O)(=O)N(C)C)cc1NC(=O)Cn1c(CN2CCOCC2)nc2ccccc2c1=O,0,-8,-1.0,10,-2,-0.5,-4,5,i,?
Cc1ccccc1N1C(=O)C2C3CCC(O3)C2C1=O (centres undefined),-8,7,-3.1,-40,-75,-6.8,2,-20,i,7.8
Cc1nc(Cl)cc(N/N=C/c2ccc(O)cc2O)n1,15,1,4.2,-25,-41,-7.4,57,2,i,4.0
Cc1nc2ccccc2n1CCc1nc2c3ccccc3nc(SCC#N)n2n1,-3,5,.,.,.,.,11,-2,.,5.9
CC(=O)c1ccc(OCCCC(=O)OCC(=O)N2CCN(c3ccccc3)CC2)cc1,-6,-1,.,.,.,.,.,-8,.,4.8
O=C(NCc1ccccn1)c1cc(-c2ccc(Cl)cc2)nc2ccccc12,6,-14,-57,11,6,6.3,-28,17,i,-1.9
O=c1cc(N2CCc3ccccc3C2)[nH]c(=O)n1Cc1ccc(F)cc1,2,2,4.8,12,-3,15,0,-6,i,80*
O=C(Nc1ccccc1O)C(c1ccccc1)c1ccccc1,94*,0,1.8,-20,-39,-1.2,5,8,i,2.6
CC1(C(=O)CSc2nc3ccccc3s2)CCC(=O)O1 (centres undefined),-3,18,.,.,.,.,99*,-16,.,-4.6
O=S(=O)(c1ccc(Cl)cc1)N1CCCC(c2nc(-c3ccc(F)cc3)no2)C1 (centres undefined),-5,.,-8.9,-1,-24,-0.3,-14,.,i,.
Cc1cc(C)c(NC(=O)CN(c2ccccc2)S(=O)(=O)N(C)C)c(C)c1,-2,-29,.,.,.,.,-3,.,.,3.8
Nc1c(C(=O)N/N=C/c2ccc([N+](=O)[O-])cc2)cnn1-c1ccccc1,-1,-4,-1.5,4,21,-3.6,.,-5,i,-0.4
CC(=O)c1c(N)nc2n(c1=O)CCCCC2,-4,-3,-0.2,.,.,.,-2,-14,.,1.6
O=C(OCn1ncc(Br)c(Br)c1=O)c1c(F)cccc1F,112*,3,.,.,.,.,7,39,.,3.9
CCOC(=O)C(NCc1ccccc1OC)(NC(=O)c1ccccc1)C(F)(F)F (centres undefined),-5,.,.,.,.,.,-1,12,.,?
Cc1ccc2c(c1)[C@H]1OCC[C@H]1[C@@H](c1ccncc1)N2,-1,-1,0.6,5,5,1.1,.,-5,i,-1.7
Cc1ccc2oc(C(=O)NCC(c3ccco3)N(C)C)c(C)c2c1 (centres undefined),-5,0,4.9,-15,-9,1.3,0,-2,i,1.3
COc1cccc(-c2sc3ccc(OC)cc3c2-c2ccc(O)cc2)c1,4,.,2.0,-10,-4,3.3,-4,.,i,.
Cn1nc(C(C)(C)C)c([N+](=O)[O-])c1C(=O)N1CCCCCC1,-9,2,5.9,-3,-5,-0.1,-11,2,i,-0.8
O=C(C1=C(O)C(=O)N(CCCN2CCOCC2)C1c1ccc(Cl)cc1)c1cc2ccccc2o1 (centres undefined),1,19,3.6,3,2,2.5,92*,-3,i,4.7
Cc1ccc(OC(C)C(=O)Nc2ccncc2)cc1 (centres undefined),-4,-1,-0.2,4,-7,-1.0,-5,-3,i,-2.8
C=CCNC(=O)CN1CCN(Cc2ccc3c(c2)OCO3)CC1,0,0,1.7,12,7,-0.6,-32,5,i,-2.2
CSc1nc2c(c(=O)n1Cc1ccccc1)SC(C)C2 (centres undefined),3,4,.,.,.,.,1,1,.,2.3
N#CC1=C(S)N(c2ccccc2)C(c2ccc(-c3cccc(Cl)c3)o2)NC1=O (centres undefined),10,11,-3.2,10,14,7.3,5,-2,i,-1.9
COc1ccccc1NC(=O)N(Cc1ccccc1)c1ccccn1,2,.,.,.,.,.,-6,8,.,1.5
O=C(O)c1ccccc1C(=O)NNC(=O)C(c1ccccc1)c1ccccc1,-16,9,0.0,5,10,1.5,4,-29,i,8.0
Cc1cc(C)nc(/N=C(\N)Nc2ccc(C)c([N+](=O)[O-])c2)n1,21,-3,.,.,.,.,12,-10,.,0.7
O=C(COC(=O)CNS(=O)(=O)/C=C/c1ccccc1)Nc1cccc2ccccc12,-12,-15,.,.,.,.,-25,-12,.,-4.1
Cc1nc2ccc([N+](=O)[O-])cc2nc1C,-6,20,-17,2,-1,-0.5,-39,11,i,-1.9
Cc1cc(/C=C2/SC(=O)NC2=O)c(C)n1-c1ccc(N2CCOCC2)cc1,16,-1,.,.,.,.,67,10,.,4.3
CN1CCSc2ccc(C(=O)NCc3cccc(F)c3)cc21,1,10,1.8,0,-5,5.4,92*,2,i,-1.3
O=C(CCNS(=O)(=O)c1ccccc1F)N1CCN(C(c2ccccc2)c2ccccc2)CC1,3,-7,0.2,-13,-25,2.2,-3,14,.,2.9
O=C(N/N=C/c1cc(Cl)cc([N+](=O)[O-])c1O)C1CC1,3,-2,2.3,1,10,3.2,.,43,i,2.4
Cc1ccc(S(=O)(=O)CC(=O)Nc2sc(C)c(C)c2C(N)=O)cc1,0,2,0.5,0,0,0.3,.,-10,i,1.1
O=S(=O)(Nc1ccc2c(c1)OCO2)c1cccc(Br)c1,-2,.,-4.7,-4,-40,-1.9,34,.,i,.
O=S(=O)(c1ccc2nc(N3CCN(c4ccccc4F)CC3)ccc2c1)N1CCCCC1,-2,-10,0.2,12,11,-1.1,-7,-4,i,3.2
O=C(O)/C=C/c1nc(-c2ccccc2)n2ccccc12,-4,29,.,.,.,.,18,4,.,3.7
CCO[C@@H]1OC(C(=O)O)=C[C@H](C)[C@H]1CCCO,-8,4,3.4,1,4,10,.,0,i,-3.2
O=c1ccc(NS(=O)(=O)c2ccccc2Cl)cn1Cc1ccc(Cl)c(Cl)c1,5,31,.,.,.,.,-20,-8,.,10
CCCCN(C)Cc1c(C)[nH]c2c(ccc3ccccc32)c1=O,3,.,2.2,9,4,-0.6,-14,-8,i,-0.9
CN=C1S/C(=C\c2cn(CC(=O)OC)c3ccccc23)C(=O)N1C,-3,13,.,.,.,.,.,-6,.,-4.6
CCOC(=O)C1CCN(C(=O)COC(=O)COc2ccc(Cl)cc2)CC1,-3,-9,-0.9,.,.,.,-10,-19,.,3.1
CC(C)c1ccc(NC2CCCN(C(=O)CCCn3cncn3)C2)cc1 (centres undefined),-3,1,-15,9,6,0.2,96*,12,i,0.2
CC(C)Cn1nc(C(=O)OCC(=O)NCC(F)(F)F)c2ccccc2c1=O,4,5,-1.4,15,11,-0.5,3,-11,i,-0.9
Cc1ccc(NC(=O)CSc2nccn2Cc2ccco2)cc1,-10,-4,5.4,6,-4,1.2,89*,-14,i,1.4
# (next part)
SMILES,Beta apoptosis,Calb FLC,AF4-AF9 inh,rRNA inh HTS,rRNA inh HTS OD600,rRNA inh HTS RFP,ALR inh,T cruzi repl,FGF22 binding,RanGTP-Impb inh
CCOc1c(Br)cc(/C=C2\C(=O)N(CCC#N)N=C2C)cc1OC,-22,?,.,.,.,.,4,-1,.,-0.3
O=C(Cc1c(F)cccc1Cl)N/N=C/c1cccnc1,-3,9,0.8,5,6,-0.1,-23,7,i,-2.4
O=C(CSc1nc2ccccc2n1CC(=O)N1CCCC1)N1CCN(C(=O)c2ccco2)CC1,-2,30,.,.,.,.,-1,1,.,-4.8
O=C(COC(=O)c1cncc(Br)c1)NCCC1=CCCCC1,-1,-3,.,.,.,.,-6,-6,.,1.3
Cc1ccc(S(=O)(=O)C(C#N)c2nc3ccccc3nc2OC(C)C)cc1 (centres undefined),6,3,.,.,.,.,0,-2,.,6.0
Cc1ccc2c(c1)c1c(n2C)C(C(N)=O)CCC1 (centres undefined),-8,-18,.,.,.,.,3,-20,.,2.0
O=C1CCCCC1c1cccc2ccccc12 (centres undefined),-10,-1,.,.,.,.,-4,-7,.,-3.4
O=c1[nH]c2ccc(S(=O)(=O)NCCO)cc2[nH]1,-3,4,-1.4,3,6,0.1,-7,-15,.,1.4
CCOCCn1c(N2CCCC2)nc2c1c(=O)n(C)c(=O)n2C,-6,-5,3.7,20,12,-0.5,35,10,i,-0.6
Cc1ccnc(NC(=O)Nc2ccc3c(c2)N(C)C(=O)CS3)c1,-22,6,.,.,.,.,-31,4,.,?
Cc1cc(C)c(C#N)c(SCc2ccccc2)n1,-4,11,.,.,.,.,-3,-1,.,3.1
CC(OC(=O)CCN=C1NS(=O)(=O)c2ccccc21)C(=O)NC1CCCCC1C (centres undefined),-3,5,-1.9,9,7,1.3,-21,11,i,2.6
CCc1nnc(NC(=O)C2(C)COC(c3ccc(OC)cc3)OC2)s1 (centres undefined),1,-9,-5.7,4,15,-0.4,4,-4,i,5.2
